# Screens: PubChem, National Center for Advancing Translational Sciences (NCATS)
# AmpC nodet inh – blocks E. coli AmpC beta-lactamase in absence of detergent. 71,000 compounds, 1.8% hits. P00811. Potency, µM (doses to about 28.7 µM), for the others: at the top dose activity change, negative = inhibition. AmpC nitrocefin hydrolysis, absorbance 480 nm, no detergent; potencies from a single point are estimates; active = falling curve, for most hits resting on a single point; inconclusive = weak or doubtful change; inactive = flat or rising curve; note: % of control where 0% means no effect; about half of the hits show no inhibition at the top dose; a quarter of the inactives give rising signals
# Target sequence (P00811 whole entry, looked up): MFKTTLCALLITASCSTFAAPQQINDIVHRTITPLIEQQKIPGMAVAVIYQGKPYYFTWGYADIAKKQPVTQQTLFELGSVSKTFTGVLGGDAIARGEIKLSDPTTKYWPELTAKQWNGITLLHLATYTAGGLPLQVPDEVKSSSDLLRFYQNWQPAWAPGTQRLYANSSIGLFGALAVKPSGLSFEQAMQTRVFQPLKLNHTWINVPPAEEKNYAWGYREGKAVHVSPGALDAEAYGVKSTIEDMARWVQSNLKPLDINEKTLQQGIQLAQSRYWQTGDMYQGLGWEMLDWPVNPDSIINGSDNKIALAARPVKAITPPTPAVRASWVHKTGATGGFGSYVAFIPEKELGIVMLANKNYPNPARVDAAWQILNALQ
#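 AmpC, 20 mM phosphate pH 7.0; 15 min cpd preinc, RT; start with nitrocefin (800 uM stock); A480 kinetic read, 20 s intervals, 4 min. No-enzyme wells = negative control.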
# Starred values were filed as active, the others as inactive; u = inconclusive; [ ] = remark or other dose. Potency is the fitted concentration of half-maximal effect. The list is partial, so the mix of outcomes need not match the whole.
SMILES,AmpC nodet inh
Nc1nc(-c2ccco2)nn1C(=O)CCc1ccccc1,26%
CCC(C)n1[nH]c(=O)c2c(C)cc(C)nc21 (centres undefined),10%
Cc1cc(CN2CCCCC2)c(O)c(CN2CCCCC2)c1,-2%[5.75 µM]
O=C1C(Cl)=C(N2CCOCC2)C(=O)N1c1cccc(Cl)c1,11%
O=C(C(Cc1ccccc1)n1cccc1)N1CCN(Cc2ccccc2)CC1 (centres undefined),121%
Cc1cc(C)cc(-c2nnc(SCC(=O)N3CCN(C(=O)c4ccco4)CC3)o2)c1,130%
Cc1cccc(C(=O)O)c1[N+](=O)[O-],-1%
C=CCOc1ccc(C2NC(=O)NC(C)=C2C(=O)OC)cc1 (centres undefined),-10%
CCCNC(=O)NCCc1c(C)[nH]c2ccccc12,-14%
COC(=O)c1[nH]c2ccc(F)cc2c1NC(=O)CCN1CCN(Cc2ccc3c(c2)OCO3)CC1,101%
CCC(C)NC(=O)c1ccccc1C(=O)NC(C)CC (centres undefined),-4%
CSC1=NCCN1C(=O)C(C)(C)Oc1ccc(Cl)cc1,59%
COc1ccc(-c2cc(N)n(S(=O)(=O)Cc3ccccc3)n2)c(OC)c1,4%
CCCCc1ccc(CC(=O)O)cc1,-5%
Cc1onc(-c2ccccc2)c1C(=O)NC(C)C,1%
Cc1ccc(N(Cc2cc(=O)[nH]c3ccccc23)C(=O)c2ccco2)cc1,15%
CC(C)c1nnc(NC(=O)CSc2nc3ccccc3s2)s1,-6%
COn1cnnc1-c1ccccc1,-11%
Nc1nc(CSc2nc3ccccc3[nH]2)cs1,-21%
CCOC(=O)c1c(C)nc2ncccn12,-1%
Cc1ccc(NC(=O)c2nnn(CC(=O)Nc3ccccc3)c2N)cc1C,-11%
O=C1C2C3C=CC(C3=C3CCCCC3)C2C(=O)N1c1ccccc1 (centres undefined),0%
COc1ccc(C2CC(C(F)(F)F)n3nc(C(=O)Nc4ccc5c(c4)OCO5)cc3N2)cc1 (centres undefined),20%
Cn1c(COc2ccc(Cl)cc2)nc2ccccc2c1=O,29%
COc1ccc(NC(=O)C2CCCN2C(=O)NC2CCCCC2)cc1OC (centres undefined),-6%
# (cont.)
SMILES,AmpC nodet inh
COC(=O)C1=C(C)OC(N)=C(C#N)C1C1CCCCC1 (centres undefined),-3%
c1cncc([C@@H]2CCCCN2)c1,2%
COc1ccc(N2CCN(C(=O)C(C)(C)Oc3ccc(Cl)cc3)CC2)cc1,106%
Nc1nc(N)nc(-c2ccccc2)n1,4%
CCC(C)NC(=O)C1CC(c2cccc(OC)c2)=NO1 (centres undefined),16%
CCCCNC(=O)c1ccc(CS(=O)(=O)c2cccc(C(F)(F)F)c2)o1,25%
O=C(NNC(=O)c1ccncc1)c1ccncc1,-7%[5.75 µM]
Cc1ccc(OCCNC(=O)c2ccco2)cc1C,19%
O=C(Cn1c(=O)oc2ccccc21)Nc1ccc(S(=O)(=O)N2CCCCC2)cc1,-21%
CC(C)Cn1c(=O)c(C2=NS(=O)(=O)c3ccccc3N2)c(O)c2ccccc21,-4%
COc1ccc(OCc2cccc(C(=O)O)c2)cc1,-5%
Cc1occc1C(=O)N1CCN(c2ccc(Cl)c(Cl)c2)CC1,61%
O=C(CSc1nnc(-c2ccccc2Cl)n1Cc1ccco1)Nc1ccc2c(c1)OCCO2,8%
O=C(C(Cc1ccccc1)N1C(=O)C2C3C=CC(C3)C2C1=O)N1CCCCCC1 (centres undefined),52%
CC1CCN(Cc2nc3c(c(=O)n(C)c(=O)n3C)n2CCN2CCOCC2)CC1,51%
O=C(Nc1cccc(F)c1)N1CC[C@@]2(CCCNC2)C1,-16%
CC1(C)S[C@@H]2[C@H](NC(=O)COc3ccccc3)C(=O)N2[C@H]1C(=O)O (tested in a mixture with another compound),4%[12.8 µM]
CC(C)C(=O)Nc1ccccc1N1CCN(S(C)(=O)=O)CC1,-5%
O=C(COc1ccc(-n2cnnn2)cc1)NC1CCCCC1,6%
N#Cc1ccc(Oc2cccnc2)cc1C#N,3%
COC(=O)N1CCC2(CC1)CN(C(=O)Nc1ccc(OC)cc1)C2,9%
CCOC(=O)C1CCN(CC(=O)Nc2c(C(=O)OC)n(C)c3cccc(C)c23)CC1,106%
CC(C)[C@@H](CC(=O)N[C@@H]1CCCC[C@H]1C(=O)N[C@H](CC(=O)N[C@@H](CCC(=O)O)CC(=O)O)Cc1c[nH]c2ccccc12)NC(=O)C[C@H](Cc1ccccc1)NC(=O)[C@@H]1CCCC[C@H]1N,135%
COc1cccc(OCc2nc3ccccc3[nH]2)c1,4µM*[single pt active]
O=C(Nc1ccc(-c2cn3ccsc3n2)cc1)C1COc2ccccc2O1 (centres undefined),-17%
# The results go on.
SMILES,AmpC nodet inh
CCCc1cc(=O)[nH]c(SCC(=O)c2cc(C)n(C(C)COC)c2C)n1 (centres undefined),40%
Cc1ccc(C(=O)N2CCCC2)cc1S(=O)(=O)Nc1ccccc1,9%
C=CCn1c(=O)[nH]c2cc(C(=O)N3CCN(c4cc(C)ccc4C)CC3)ccc2c1=O,25%
COc1ccc(-c2[nH]ncc2-c2cnn(-c3ccccc3)c2)c(O)c1,-16%
CCOC(=O)N1CCC(c2[nH][nH]c(=O)c2C)CC1,-7%
Cc1nnc(SCC(=O)NCC2CCCO2)n1-c1ccccc1 (centres undefined),-11%
CC1=C(C(=O)Nc2ccccc2C)C2(CCCC2)C(C(N)=O)C(=O)N1 (centres undefined),2%
CC(C)N(C)C1CCN(C(=O)Nc2ccc(Cl)cc2)CC1,-10%
COc1ccccc1OCC(=O)N(Cc1nc(-c2ccccc2)no1)C1CCCCC1,53%
O=C1COc2ccc(C(=O)CSc3nnc(Cc4cccs4)n3-c3ccccc3)cc2N1,61%
CCC1CCCCN1C1Sc2ccc(C(=O)OC)cc2NC1=O (centres undefined),34%
COCCn1nnnc1C(c1ccccc1OC)N1CCN(c2ccccc2F)CC1 (centres undefined),102%
Cc1ccc(O)c(NC(=O)c2cccc(S(=O)(=O)N3CCCCC3)c2)c1,-19%
CC(=O)n1c2ccccc2c2c1c1ccccc1n2C,7%
CCC(c1nnc(SCC(=O)N2CC3(C)CC2CC(C)(C)C3)o1)N(C)C (centres undefined),62%
CN(C)CCC(C#N)(c1ccccc1)c1ccccc1,14%[5.75 µM]
Cc1cc(NC(=O)CNC(=O)C2CCCCC2)no1,-10%
COc1ccc(S(=O)(=O)Cc2ccc(C(=O)NCc3ccco3)o2)cc1,4µM*[single pt active]
CC(C)(C)n1nc2c(c1NC(=O)c1ccc(Br)o1)CS(=O)C2 (centres undefined),-2%
CCOC(=O)c1ccc(NC(=O)CSc2nc3c(c(=O)n2CC)SC(C)C3)cc1 (centres undefined),39%
Nc1nc(NC(=O)c2cccnc2)nn1-c1ccccc1,0%
CC(C)NC(=O)c1ccccc1NC(=O)CCS(=O)(=O)Cc1ccccc1,3%
Cc1ccc(SCC(=O)NCCN2C(=O)CSC2=O)c(C)c1,-3%
Cc1ccc(-n2c(N)c(-c3nc4ccccc4n3C)sc2=S)cc1,-20%
COc1ccc(C2C/C(=N\O)C(C)(C)O2)cc1 (centres undefined),1%
# Next part
SMILES,AmpC nodet inh
Cc1ccc(Nc2nc(N)nc(CN3CCN(Cc4ccc5c(c4)OCO5)CC3)n2)cc1Cl,150%
CCOc1ccc2c(O)csc2c1,u
Cc1cc2c(cc1C)-c1nnnn1C(C)(C)C2,0%
COC(=O)CNC(=O)CCCCC(=O)NCC(=O)OC,0%
CN(Cc1ccccc1)c1nc2c(c(=O)[nH]c(=O)n2C)n1Cc1ccccc1,7%
Cc1ccccc1-c1cncnc1Nc1ccccc1,11%
CS(=O)(=O)N1CCC2(CCN(Cc3ccncc3)CC2)CC1,-3%
COc1ccc(OC)c(N2C(=O)CC(Cc3ccc(C)cc3)C2=O)c1 (centres undefined),30%
CC1(C)CC(=O)c2cc(OCC(=O)NCCCN3CCN(c4ccccc4F)CC3)ccc2O1,98%
Cc1cc(OCCSc2nnc(-c3cccs3)n2C)ccc1Cl,104%
C=CCOC(=O)Nc1c(C(=O)OC)[nH]c2ccc(Cl)cc12,1%
Cc1ccc(OCc2ccc(C(=O)N3CCOCC3)cc2)cc1C,92%
CC1(C(=O)NCc2cccnc2)CCC(=O)N1CCc1ccccc1 (centres undefined),4µM*[single pt active]
COc1cccc(-c2cc(C(=O)N3CCN(Cc4ccccc4)CC3)no2)c1,105%
CCOCC(=O)Nc1c(C(=O)OCC)oc2ccccc12,23%
Cc1ccc(C(C)n2cc(C(=O)NCc3ccncc3)nn2)cc1 (centres undefined),6%
CCCCCC/C(=N/O)c1ccccn1,0%
Cc1cc(C)c2nc(N3CCCC(C(=O)N4CCC(C(N)=O)CC4)C3)sc2c1 (centres undefined),151%
CC(Oc1ccccc1)C(=O)OCC(=O)NC(=O)NCc1ccco1 (centres undefined),1%
Cc1ccc(NC(=O)c2cnc3scc(C)n3c2=O)c(C)c1,0%
Nc1ccn(-c2ccccc2)c(=O)c1,-2%
COc1ccc(C(=O)C2CCN(S(=O)(=O)c3ccc4c(c3)OCCO4)CC2)cc1,-4%
CCCCC(CC)CNC(=O)CCS(=O)(=O)c1cccc2nsnc12 (centres undefined),13%
CC1CCN(Cc2ccc(NC(=O)CC3Oc4ccccc4NC3=O)cc2)CC1 (centres undefined),4µM*[single pt active]
Cc1cccc(-n2c(=O)[nH]c3c(C(N)=O)nc(CC(C)C)nc32)c1,-4%
# (cont.)
SMILES,AmpC nodet inh
COc1ccc(CNC(=O)CCc2nc(-c3ccccc3F)no2)c(OC)c1,18%
N#Cc1ccc(CN2CCC3(CCNCC3)CC2)cc1,12%
O=S(=O)(c1ccc2c(c1)OCCO2)N1CCC(n2nnc3cc(C(F)(F)F)ccc32)CC1,0%
COc1ccc(OC)c2c(C)cc(N3CCN(C(=O)c4ccc(F)cc4)CC3)nc12,132%
COc1ccc(C2CC(C(F)(F)F)n3nc(C(=O)O)cc3N2)cc1OC (centres undefined),-1%
O=C1c2ccccc2C(=O)N1CCCOc1ccccc1,-7%
Cc1cc(C(=O)Cn2nnc(-c3ccc(Cl)cc3)n2)c(C)n1CC1CCCO1 (centres undefined),34%
O=C(Nc1nc2ccccc2[nH]1)C1CCCO1 (centres undefined),-14%
CCn1c(SCC(=O)Nc2cc(C)c(Cl)cc2OC)nnc1-c1ccco1,90%
Clc1ccccc1-c1nc(-c2cccnc2)no1,11%
CCOC(=O)C1C(=O)NC2(C)CC1c1cc(OC)ccc1O2 (centres undefined),-5%
O=C1NC(=S)SC1=C1CCCCCC1,-17%
O=C(NCc1ccccc1F)C1CCCN1C(=O)NCc1ccccc1 (centres undefined),-10%
CC1(COc2ccc(C[C@H]3SC(=O)NC3=O)cc2)CCCCC1,-13%
Cn1c2c(c(=O)n(C)c1=O)CN(Cc1ccco1)CN2,-7%
CC1=C(C(=O)OC(C)C)C(c2ccc(Br)s2)NC(=O)N1C (centres undefined),17%
Cc1ccc(O)cc1,-10%
Cc1ccc(CSc2nnc(-c3ccco3)n2N)cc1,11%
CCOC(=O)c1ccc2c(c1)nc(COc1ccccc1C#N)n2CC,22%
C=C(C)COc1ccc(-c2[nH]ncc2Oc2cccc(OC)c2)c(O)c1,10µM*
O=C(C1CC1)N1CCc2cc(S(=O)(=O)N3CCOCC3)ccc21,6%
Cc1cc2ncn(-c3ncnc4sc(C)c(C)c34)c2cc1C,50%
Cc1cc(C)nc(Sc2c(C)nn(-c3ccccc3)c2C)n1,56%
CCN1CCN(CCNC(=O)c2cn(C(C)c3ccccc3F)nn2)CC1 (centres undefined),-1%
O=C1C2CCCN2C(c2cccnc2)N1c1nccs1 (centres undefined),-6%
Cc1ccc(CNC(=O)c2ccc(NS(=O)(=O)c3c(C)noc3C)cc2)cc1,-4%
CC(C)(C)OC(=O)N1CCC(c2c(C(=O)O)cnn2-c2ccccc2)CC1,-3%
COc1ccccc1CNC(=O)C1CC(=O)N(c2ccc(C)c(C)c2)C1 (centres undefined),34%
O=C(c1ccco1)N1CCCC(c2ccccc2)C1 (centres undefined),9%
